Assay outcomes (PubChem)
HTT prom inh: inhibits huntingtin promoter activity | HEK293 HTT promoter firefly luciferase reporter (activity 0% = vehicle and -100% = no light), 24 h | Potency, µM (titrated, usually from 57.5 µM), inactives show at the highest dose activity change, negative = inhibition, most hits filed as inhibitors | 48,000 compounds, 0.93% hits; active means well fitted inhibition curve with a large enough effect; inconclusive means small, poorly fitted or top-dose-only effect; inactive means no such curve, though single readings can be large or run the other way; further: nearly all actives have a fitted effect of over 50% in size
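HEK293 Fluc reporter, 2,500 cells/well, 24 h pre-culture; cpds up to 57.5 uM final, 24 h 37 degrees C; Dual-Glo, 10 min RT; normalized vehicle = 0%, zero RLU = -100%.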
PMP22 txn: modulators of PMP22 gene transcription in S16 Schwann cells. S16 Pmp22-F2sN Schwann cells (luciferase reporters placed in the Pmp22 gene), FLuc/NLuc coincidence luminescence, 24 h. Potency, µM (titrated, usually from 57.5 µM), for inactives: at the top dose activity change, negative = inhibition, actives largely listed as inhibitors. 43,000 compounds, 2% hits. AID 1508649; active = clear falling dose curves in both reporters; inconclusive = both reporters move, but less clearly or upward; inactive = either reporter flat; the % is the NLuc reporter signal; further: on the % scale 0 is the no-effect control and ±100 the full control effect; some results filed as inactive show a strong effect at the top dose
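S16(c9) Schwann cells with FLuc/NLuc coincidence reporter in the Pmp22 3' UTR; compounds pin-transferred, 24 h at 37C. Dual-luciferase read: FLuc first, then NLuc after Stop&Glo, each 10 min at room temperature.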
* hit, by the source's call; ? = inconclusive; / = no result given; [ ] = another dose, or the depositor's remark. Potency means the concentration at half of the fitted maximal effect.

Every second line gives: PMP22 txn	HTT prom inh
COc1ccccc1CNC(=O)C(=O)NCC(c1cccnc1)N1CCN(c2ccc(F)cc2)CC1 (stereo unspecified)
  ?	?
Cc1oc(-c2ccc(Cl)cc2)nc1Cn1c(=O)cc(C)c2c(C)nn(-c3ccccc3)c21
  1%	8%
Cc1cccc(CNC(=O)c2ccc3nc(-c4ccccc4)c(-c4ccccc4)nc3c2)c1
  6%	2%
Cc1ccc(-n2nc(CO)c(C(=O)NCCCCc3ccccc3)n2)cc1
  3%	2%
COc1ccc(C(=O)Nc2nc3nc(C)c(Cc4ccccc4)c(=O)n3[nH]2)cc1OC
  0%	-13%
COC(=O)c1c(-c2ccc(Cl)cc2)noc1N1CCN(c2ccc(C(C)=O)cc2)CC1
  2.7µM*	9%
Cc1ccc(NC(=O)CCS(=O)(=O)c2cccc3nsnc23)c(C)c1
  -11%	-9%
COCCNC(=O)Cn1c(=O)c2cccn2c2ccc(F)cc21
  -10%	7%
Cc1cn2c(=O)c(S(=O)(=O)Nc3ccc(F)cc3F)c(C)nc2s1
  0%	-6%
COc1ccc(-c2c(C)c3ccc(O)c(CN4CCC(C)CC4)c3oc2=O)cc1OC
  8%	-18%

(continued)
Every second line gives: PMP22 txn	HTT prom inh
CCOC(=O)c1ccc(NC(=O)Nc2cc3c(cc2N2CCCC2)n(C)c(=O)n3C)cc1
  9%	-3%
COc1ccc(OC)c(-n2cnc3cc(C(=O)NCCc4ccccc4)ccc32)c1
  ?	7%
O=C(O)CCc1ccc(NCc2cccc(Oc3ccccc3)c2)cc1
  /	-8%
COc1cccc(N2CCN(C(=O)c3nc(-c4ccc(Cl)cc4)n4c3CCCCC4)CC2)c1
  ?	?
CCOC(=O)c1c(NC(=O)COc2ccc(F)cc2)sc2c1CCC(C)C2 (stereo unspecified)
  -15%	-27%[11.5 µM]
O=C(Cn1c(-c2cccs2)cc2cc(F)ccc21)NCCc1ccc(Cl)cc1
  -3%	-12%
COc1ccc2c(CNCc3ccco3)c(C(=O)O)n(Cc3ccccc3)c2c1
  -3%	-20%
CCOc1ccccc1C1CC(=O)NC(C)=C1C(=O)OCc1ccc(C)cc1 (stereo unspecified)
  -18%	?
Cc1cc2c(cc1NS(=O)(=O)c1ccc(Br)cc1)n(C)c(=O)c(=O)n2C
  ?	-22%
CCOC(=O)c1c(C)c(-c2ccccc2)n(CC(=O)NC2CCCCCC2)c1C
  0%	-9%

Later entries
Every second line gives: PMP22 txn	HTT prom inh
Cn1c(SCC(=O)N2CCOCC2)ncc(C(=O)Nc2ccccc2)c1=O
  -29%	-3%
Cc1ccc(C)c(Nc2nn3c(=O)c4cc5c(cc4nc3s2)OCO5)c1
  -44%	15%
O=C1CN(C(=O)COc2ccccc2)C(c2ccc(F)cc2)c2cc(Br)ccc2N1 (stereo unspecified)
  -14%	?
Fc1ccc([C@@H]2Nc3ccccc3[C@@H]3C=CC[C@@H]32)cc1
  -2%	-22%
CS(=O)(=O)c1cccc(-c2nnc(NC(=O)c3ccc4c(c3)OCCO4)o2)c1
  -45%	-6%
O=S(=O)(Nc1cc(F)ccc1F)c1ccc2[nH]c3c(c2c1)CCCCC3
  ?	?
CCOC(=O)C1CCCN(C(=O)Cn2ncc3c4ccccc4n(Cc4ccc(F)cc4)c3c2=O)C1 (stereo unspecified)
  0%	-19%
O=C1CCc2ccccc2O1
  /	-12%
Cc1ccc(N(C)S(=O)(=O)c2ccc3c(c2)C(C)(C)C(=O)N3C)cc1C
  -7%	?
Cc1cc(C)n(CCc2nc3c4ccccc4nc(N4CCN(c5cccc(C)c5C)CC4)n3n2)n1
  0%	-5%

Next part:
Every second line gives: PMP22 txn	HTT prom inh
Cn1nc(-c2ccc(OCC(=O)Nc3ccccc3)cc2)c2ccccc2c1=O
  ?	?
Cc1ccc(Cl)cc1NC(=O)CSc1nc2c(c(=O)[nH]1)CN(Cc1ccccc1)CC2
  -9%	-13%
CCc1ccccc1-n1nnc(-c2nsc(NC(=O)c3ccc(C)c(C)c3)n2)c1C
  ?	?
O=C(Nc1ccccc1[N+](=O)[O-])c1csnn1
  ?	4%
COc1cc2ncnc(Nc3cc(Br)c(O)c(Br)c3)c2cc1OC
  /	-20%
Cc1c2cnn(CC(=O)NCc3ccccc3)c(=O)c2c(C)n1Cc1cccc(Cl)c1
  13µM*	?
Cc1ccc(N(C)S(=O)(=O)c2nnc(NC(=O)CC(C)C)s2)cc1
  -1%	5%
CC(=O)N1CCCc2cc(S(=O)(=O)N3CCC(C(=O)Nc4cccc(Cl)c4C)CC3)ccc21
  13%	?
COc1cccc(NC(=O)CCCn2c(=O)c3cccn3c3cccnc32)c1
  ?	18%
COc1ccc(OC)c(NC(=O)Cc2c(C(=O)O)n(C)c3ccc(C)cc23)c1
  -1%	-12%

Five of these compounds in another layout.
structure	PMP22 txn	HTT prom inh
Cc1c2cnn(CC(=O)NCc3ccccc3)c(=O)c2c(C)n1Cc1cccc(Cl)c1	13µM*	?
Cc1ccc(N(C)S(=O)(=O)c2nnc(NC(=O)CC(C)C)s2)cc1	-1%	5%
CC(=O)N1CCCc2cc(S(=O)(=O)N3CCC(C(=O)Nc4cccc(Cl)c4C)CC3)ccc21	13%	?
COc1cccc(NC(=O)CCCn2c(=O)c3cccn3c3cccnc32)c1	?	18%
COc1ccc(OC)c(NC(=O)Cc2c(C(=O)O)n(C)c3ccc(C)cc23)c1	-1%	-12%

More structures follow:
Every second line gives: PMP22 txn	HTT prom inh
Cn1c(=O)c2c(-c3ccc(Cl)cc3)n(Cc3ccccc3)cc2n(C)c1=O
  ?	-23%
Cc1ccc(Cn2cc(C(=O)c3ccc4c(c3)OCO4)c(=O)c3cc(C)ccc32)cc1
  ?	?
O=C(c1ccc2c(c1)N(Cc1ccc(Cl)cc1)C(=O)c1ccccc1S2=O)N1CCCCC1 (stereo unspecified)
  -16%	-29%
Cc1ccccc1S(=O)(=O)Cc1ccc(C(=O)NCc2ccccc2Cl)o1
  ?	-24%
CCOCCc1nn2c(=O)cc(COC(=O)c3ccccc3NC(=O)CC(C)C)nc2s1
  ?	-8%
CCCn1c2ccccc2c2cnn(CC(=O)N3CCN(c4ccccc4)CC3)c(=O)c21
  7%	-10%
COc1ccc(C(CC(=O)Nc2ccc(C)cn2)N2Cc3ccccc3C2=O)cc1OC (stereo unspecified)
  12%	-15%
CC(C)c1ccc(NC(=O)CCS(=O)(=O)c2cccc3nonc23)cc1
  -5%	-14%
Cc1ccc(C)c(N2CCN(C(=O)CCc3c(C)nc4c(c3C)c(=O)n(C)c(=O)n4C)CC2)c1
  -34%	3%
Cc1cc(C)cc(NC(=O)CCC(=O)N2Cc3ccccc3Oc3ncccc32)c1
  -2%	-21%

(further entries)
Every second line gives: PMP22 txn	HTT prom inh
COC(=O)c1ccccc1NC(=O)c1sc2nc(C)cc(C)c2c1NC(=O)c1ccccc1Cl
  ?	-14%
Cc1[nH]c2ccccc2c1SCCNC(=O)c1ccc(F)cc1
  -7%	?
C=CCC(CC=C)(CNC(=O)C(=O)Nc1cccc(C(F)(F)F)c1)c1ccccc1
  -11%	-3%
CC(C)c1ccc(NC(=O)C2CCN(S(=O)(=O)c3ccc(Br)s3)CC2)cc1
  -26%	?
O=S(=O)(c1ccc(-c2cc(C(F)(F)F)on2)s1)N1CCN(c2cccc(Cl)c2)CC1
  ?	-3%
CC(=O)N1CCc2c(sc3c2c(=O)n(-c2ccccc2C)c(=O)n3CC(=O)c2ccccc2)C1
  -10%	-17%
CCc1ccccc1NC(=O)Cn1nnc(C(=O)Nc2ccc(OC)c(OC)c2)c1N
  2%	-3%
Cc1ccc(C)c(Cn2c(C)c(CNCc3ccc(F)cc3)c(C(=O)O)c2C)c1
  -10%	?
CCCC(=O)NC(C)c1nc2ccccc2n1Cc1ccccc1 (stereo unspecified)
  1%	2%
COc1ccc(-c2nc(SCC(=O)Nc3ccccc3)c(-c3ccc(F)cc3)[nH]2)cc1OC
  ?	-26%

2 records picked at random from the list so far, as already listed:
Every second line gives: PMP22 txn	HTT prom inh
COc1ccc(-c2nc(SCC(=O)Nc3ccccc3)c(-c3ccc(F)cc3)[nH]2)cc1OC
  ?	-26%
COC(=O)c1ccccc1NC(=O)c1sc2nc(C)cc(C)c2c1NC(=O)c1ccccc1Cl
  ?	-14%

(more compounds)
Every second line gives: PMP22 txn	HTT prom inh
COc1ccc(-c2nc3cc(NC(=O)COc4ccc(F)cc4)ccc3o2)cc1
  ?	5%
Cc1ccc(-n2nnnc2CNC(=O)c2ccccc2F)cc1C
  -45%	12%
CC(=O)N1CCCc2cc(S(=O)(=O)N3CCCC(C(=O)Nc4cc(Cl)ccc4C)C3)ccc21 (stereo unspecified)
  11%	?
CC1=C(c2ccc(C)c(C)c2)S(=O)(=O)N(Cc2ccc(C(=O)NC(C)c3ccccc3)cc2)C1=O (stereo unspecified)
  1%	-31%
CCCS(=O)(=O)N1CC(=O)N(c2cccc(Cl)c2)C(C)(C(=O)NC2CCCCC2)C1 (stereo unspecified)
  -16%	-4%
CCCNC(=O)C1Cc2cc(S(=O)(=O)N3CCCCCC3)ccc2N1C(C)=O (stereo unspecified)
  0%	-4%
Cc1ccc(S(=O)(=O)c2cn(Cc3ccc(F)cc3)c3cc(F)c(F)cc3c2=O)cc1
  -4%	-12%
Cc1ccc(CN(C(=O)c2ccccc2Br)C2CCS(=O)(=O)C2)o1 (stereo unspecified)
  -2%	-6%
COc1cccc(NC(=O)CSC2=Nc3ccccc3C3=NC(CC(=O)NCCc4ccccc4)C(=O)N23)c1 (stereo unspecified)
  ?	-13%
CN(C)S(=O)(=O)c1ccc2c(c1)nnn2CCNC(=O)Nc1ccc(Cl)cc1
  2%	-14%

The results go on:
Every second line gives: PMP22 txn	HTT prom inh
COc1ccc(NC(=O)C(=O)NCC(c2cccnc2)N2CCc3ccccc32)cc1OC (stereo unspecified)
  ?	?
CCOC(=O)c1ccccc1NC(=O)c1cnc(N2CCOCC2)c2ccccc12
  ?	-9%
O=C(CCCn1c(=O)c2cccn2c2cccnc21)NCCc1ccc(Cl)cc1
  ?	-6%
O=C(CSc1nncn2c1cc1sccc12)Nc1ccc(Br)cc1F
  -37%	2%
CCCCCn1c(-c2cccc(C)c2)nc2ccccc21
  ?	-9%
Cc1oc(-c2ccc(C(=O)Nc3ccccc3F)cc2)nc1COc1ccccc1
  -16%	-26%
CC(C)=CCNc1ncnc2c1ncn2[C@@H]1O[C@H](CO)[C@@H](O)[C@H]1O
  /	?
CSc1ccc(CCNC(=O)c2cc3c(-c4ccccc4F)nn(C)c3s2)cc1
  -2%	-26%
CNC(=O)c1c(NC(=O)/C=C/c2ccccc2Cl)sc2c1CCC2
  ?	-20%
Nc1ccc(O)c([N+](=O)[O-])c1
  /	8%[116 µM]

(cont.)
Every second line gives: PMP22 txn	HTT prom inh
Fc1ccc(-c2cn3cc(Cc4ccc(Cl)cc4)sc3n2)cc1
  -6%	3%
CCOc1ccccc1NC(=O)N1CC(CC)Oc2ccccc21 (stereo unspecified)
  -21%	-16%
CC=C1C2C=C(C)CC1(N)c1ccc(=O)[nH]c1C2 (stereo unspecified)
  /	0%
Cc1cc2[nH]c(=O)c(=O)[nH]c2cc1S(=O)(=O)N1CCN(c2cccc(C(F)(F)F)c2)CC1
  5%	12%
CCOCc1cc(CN2CCN(c3ccccc3OC)CC2)c(O)c2ncccc12
  ?	11µM*
Cc1ccc(Cl)cc1NC(=O)CCS(=O)(=O)c1ccc2c(c1)n(C)c(=O)c(=O)n2C
  -16%	-6%
Cc1c(C(=O)NCc2ccc(Cl)cc2)sc2nc3n(c(=O)c12)CCCCC3
  -26%	-19%
O=S(=O)(c1ccc(Cl)cc1)c1nnn2c1nc(NCc1ccc3c(c1)OCO3)c1sccc12
  ?	-3%
CCOc1ccc(Cn2c(CNS(=O)(=O)c3cccs3)nc3cccnc32)cc1
  -14%	-7%
COC(=O)c1nnn(-c2cccc(C)c2)c1N
  3%	15%

(listing goes on)
Every second line gives: PMP22 txn	HTT prom inh
COc1ccc(S(=O)(=O)Nc2ccc(-c3cn4ccsc4n3)cc2)cc1C
  -3%	-10%
CC(C)NCC(O)COc1cccc2[nH]ccc12 (stereo unspecified)
  /	1%
COCCCNc1ncnc2c1c(-c1ccccc1)cn2-c1ccc(C)c(Cl)c1
  ?	-16%
Cc1ccc(OCC(=O)Nc2ccc3[nH]c(=O)sc3c2)cc1
  15µM*	5%
CCSc1ncc(Cl)c(C(=O)Nc2c(C(=O)c3ccc(C)c(F)c3)oc3ccccc23)n1
  19%	1%
O=C(Cn1cnc2onc(-c3ccc(F)cc3)c2c1=O)Nc1ccc(F)c(Cl)c1
  -11%	-19%
CCc1ccccc1NC(=O)Cn1nnc(C(=O)NCc2ccccc2Cl)c1N
  ?	-21%
COc1ccc(N2CCN(C(=O)c3nn(C)c4c3CS(=O)(=O)c3ccccc3-4)CC2)cc1
  3%	-9%
COc1ccc(-n2c3c(c(=O)[nH]c2=O)C(NC(=O)c2ccccc2Cl)(C(F)(F)F)C(=O)N3)cc1 (stereo unspecified)
  7%	-9%
COCCNc1nc2c(c(=O)n(Cc3cccc(Br)c3)c(=O)n2C)n1C
  ?	-16%
COc1ccc(NC(=O)CSc2nc(-c3ccccc3)c3ccccc3n2)cc1
  ?	-2%
